# Tg IFNy HTS – blocks Toxoplasma gondii growth in the presence of IFN-gamma; Toxoplasma gondii growth in IFN-gamma-treated host cells; active compounds read low; reference of the scale not given here; activity change, negative = inhibition, %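 (about 20 µM by stock and volumes)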; 69,000 tested, 3.8% active; AID 1259416;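 active means below -70%; inconclusive means fit judged invalid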;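 further: host cells are HeLa cells infected with Toxoplasma gondii; parasite growth read as luciferase light; one replicate is shown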
# * marks the source's active call; other numbers are inactive results; ? = inconclusive; & = joins results of further samples. Not all compounds are listed (hit frequency here may not be typical).
SMILES,Tg IFNy HTS
CCCNC(=O)Nc1ccc2c(c1)OC[C@@H](C)N(S(C)(=O)=O)C[C@H](C)[C@H](OC)CN(C)C2=O,-59
CCc1cnc(C)nc1-c1cnc2ccccc2c1,14
CN1C(=O)c2ccccc2S12OC(=O)c1cccc3cccc2c13 (stereo unspecified),71
CC(=O)Nc1ccc(Cl)c(C(=O)N(C)Cc2ccsc2)c1,1
O=C(C[C@@H]1CC[C@@H]2[C@H](COC[C@H](O)CN2Cc2ccc3c(c2)OCO3)O1)N1CCCCC1,-38
CCCCC1=NC2(CCN(C(=O)C(NC(C)=O)C(C)C)CC2)C(=O)N1 (stereo unspecified),27
COc1ccccc1-c1ccc2n(c1=O)C[C@H]1[C@H](CO)[C@@H](C(=O)NCc3ccccc3Cl)N[C@@H]21,0
O=C(c1ccc(CO)o1)N1CCCCC1CCc1cccc(O)c1 (stereo unspecified),-1
COc1ccc(-c2nc(N3CCCCCC3)c3ccccc3n2)cc1,-25
COc1ccc(CN2CC3(CCN(S(=O)(=O)c4ccccc4)C3)C2)cc1F,101
CCOCc1ncn2c1CN(S(=O)(=O)c1ccc(F)cc1)CC2,-5
CO[C@H]1CC[C@@H]2CCN(C)C(=O)CCCN(C)C(=O)c3cc(C#N)ccc3OC[C@H]1O2,-56
Cc1ccsc1-c1cn(CC2(Cn3ccnc3C)CC2)nn1,9
C[C@H]1CN([C@@H](C)CO)C(=O)CCCn2nncc2CO[C@H]1CN(C)C(=O)Nc1cccc(Oc2ccccn2)c1,51
O=C(Cn1c(=O)cc(C(=O)N2CCCCC2)c2ccccc21)Nc1cccc(Cl)c1,-20
Cc1ccsc1-c1cc(C(=O)O)cc(S(=O)(=O)N2CCOCC2)c1,-5
Cc1cc(C)cc(S(=O)(=O)N2CCC3(CC2)NCCN=C3NCc2ccc(C(F)(F)F)cc2)c1,-52
CN1[C@@H]2Cn3c(ccc(/C=C/c4ccccc4)c3=O)[C@H]1[C@@H](C(=O)NC1Cc3ccccc3C1)[C@@H]2CO,-36
CN(C)C(=O)c1ccc(-c2cccc(-c3nc(C(=O)NCc4ccccc4)cc4c3[C@@H](CCO)N([S@](=O)C(C)(C)C)C4)c2)cc1,-54
CC1N(CCN(C)C)C(=O)COC12CCN(Cc1cnn(C)c1)CC2 (stereo unspecified),4
Cc1nc(NCC2CC2)nc2c1COCC21CCN(C(=O)c2cccnc2)C1 (stereo unspecified),7
COc1ccc(-n2c(=O)c(C(=O)Nc3ccccc3C)c(O)c3cccnc32)cc1,33
Cc1nn(C)c(C)c1Nc1n[nH]c(N)n1,27
CCn1c(C(=O)N2CCCC2)cc2cc(S(=O)(=O)N(C)C)ccc21,26
Cc1ccc(C)c(CSc2ccc(-c3sc(-c4ccc(F)cc4)nc3C)nn2)c1,-2

# Another view of some results above.
SMILES	Tg IFNy HTS
CC1N(CCN(C)C)C(=O)COC12CCN(Cc1cnn(C)c1)CC2 (stereo unspecified)	4
Cc1nc(NCC2CC2)nc2c1COCC21CCN(C(=O)c2cccnc2)C1 (stereo unspecified)	7

# New compounds follow:
SMILES,Tg IFNy HTS
COc1ccc(C(=O)N2CCN(Cc3cc4n(n3)CCCNC4)CC2)cc1,6
Cc1nc(C)c(C(=O)N2CCCC(c3ncncc3-c3ccncc3)C2)s1 (stereo unspecified),-12
C/C(=C\COc1cc(=O)[nH]c2ccccc12)CCC(O)C(C)(C)O (stereo unspecified),59
CN1[C@H](CO)[C@@H]2c3ccccc3N(C(=O)Nc3cc(F)ccc3F)C[C@@H]21,1
Cc1nc2sccn2c1C(=O)N1[C@H]2CCNC[C@@H]1CC2,-10
O=C1CC(Cn2c(=O)oc3ccccc32)c2cnn(Cc3cccnc3)c2N1 (stereo unspecified),7
Cc1ccccc1S(=O)c1ccccc1C(=O)O (stereo unspecified),-12
CC(C)c1cncnc1N1CCOC(c2ccc(Cl)cc2)C1 (stereo unspecified),-42
COc1ccccc1-n1c(=O)n(Cc2nc(-c3ccc(C)cc3)oc2C)c(=O)c2c(C)cc(C)nc21,8
Cc1csc(SCC(=O)N2CCc3c(cc(-c4cccc(Cl)c4)c(=O)n3CC3CC3)C2)n1,-30
CCCNC(=O)C[C@@H]1CC[C@@H]2[C@H](COC[C@H](O)CN2Cc2ccncc2)O1,-17
COCCN1CCC2(CC1)CN(C(=O)c1ccco1)c1ccc(F)cc12,-5
CCOc1ccccc1NC(=O)Cn1c(=O)cc(C(=O)N2CCc3ccccc3C2)c2ccccc21,-14
O=C(NCCc1csc(-c2ccc(Cl)cc2)n1)C1CC1,-39
CN1CCN(C(=O)c2cc3c([nH]c2=O)CCCC3)CC1C(=O)O (stereo unspecified),-44
CN(C)C(=O)CN1CCC2(CCCN(Cc3nccn3C)C2)C1=O (stereo unspecified),-4
N#CC(C#N)=C(N)/C(C#N)=C/c1cc(O)c(O)c(O)c1,-7
CC(C)(C)C(=O)N1C[C@H]2COC[C@@]2(c2nnc(C3CC3)o2)C1,3
Cc1ccc(C(=O)N2CCCn3nnc(CN4CCOCC4)c3C2)cc1C,-30
CC1=C(C(=O)Nc2cccc(Cl)c2C)C2(CCN(C(C)C)CC2)OC1=O,13
COCCCN(C(=O)c1ccc(NC(C)=O)cc1)C1(C(=O)NCc2ccccc2)CCN(C(C)=O)CC1,100
Cc1ccc(CNC(=O)CCC2Nc3c4ccccc4nc(=S)n3C2=O)o1 (stereo unspecified),-12
O=C1CSCC(=O)N1c1csc(C(F)(F)F)c1-c1ccccc1,-11
O=C1CCC2C(CCN2C(=O)c2cccs2)N1CCN1CCCC1 (stereo unspecified),-19
Cc1cc(C)cc(CSCC(=O)N2CCC3(CN(C)C(=O)O3)C2)c1 (stereo unspecified),21

# Part of the list above in order of count of non-hydrogen atoms, falling.
SMILES,Tg IFNy HTS
COCCCN(C(=O)c1ccc(NC(C)=O)cc1)C1(C(=O)NCc2ccccc2)CCN(C(C)=O)CC1,100
CCOc1ccccc1NC(=O)Cn1c(=O)cc(C(=O)N2CCc3ccccc3C2)c2ccccc21,-14
Cc1csc(SCC(=O)N2CCc3c(cc(-c4cccc(Cl)c4)c(=O)n3CC3CC3)C2)n1,-30
O=C1CC(Cn2c(=O)oc3ccccc32)c2cnn(Cc3cccnc3)c2N1 (stereo unspecified),7
Cc1ccc(CNC(=O)CCC2Nc3c4ccccc4nc(=S)n3C2=O)o1 (stereo unspecified),-12
CN1[C@H](CO)[C@@H]2c3ccccc3N(C(=O)Nc3cc(F)ccc3F)C[C@@H]21,1
C/C(=C\COc1cc(=O)[nH]c2ccccc12)CCC(O)C(C)(C)O (stereo unspecified),59
CN1CCN(C(=O)c2cc3c([nH]c2=O)CCCC3)CC1C(=O)O (stereo unspecified),-44
CC(C)(C)C(=O)N1C[C@H]2COC[C@@]2(c2nnc(C3CC3)o2)C1,3
O=C(NCCc1csc(-c2ccc(Cl)cc2)n1)C1CC1,-39
Cc1ccccc1S(=O)c1ccccc1C(=O)O (stereo unspecified),-12

# Additional entries:
SMILES,Tg IFNy HTS
COc1ccc(S(=O)(=O)N(C)C[C@@H]2OCCCC[C@H](C)Oc3ccc(NC(=O)Cc4ccccc4)cc3C(=O)N([C@H](C)CO)C[C@H]2C)cc1,-28
COc1ccc(F)c(F)c1CN1CCCCC1c1ccccn1 (stereo unspecified),71
Cc1cc(Cl)ccc1NC(=O)CSc1nnc(-c2ccncc2)o1,4
CCCNC(=O)N1C[C@H]2[C@@H](c3ccccc31)[C@@H](CO)N2C(=O)Nc1ccccc1F,7
Cc1c(NC(=O)C(C)(C)C)c(=O)n(-c2ccccc2)n1C,?
OCCN1C2=NCCCN2c2ccccc21,-6
CCn1ncnc1CN1CCC(CNC(=O)C2CCCCC2)C1 (stereo unspecified),0
Cc1cc(Cc2ccccc2)cc(C2CCCN(C(=O)CCc3nc(C)no3)C2)n1 (stereo unspecified),-1
CCC1=NC2(CCC(C(=O)NCc3ccc(C)cc3)CC2)C(=O)N1CC1CC1 (stereo unspecified),-3
CCCSc1ncc(CN(C)CC2CCN(C(C)C)CC2)cn1,-10
CCOc1ccc2oc(-c3ccccc3)c(C(=O)O)c2c1,13
O=C(Nc1ccc(-c2nc(-c3ccccc3)co2)cc1)c1ccccc1Cl,32
Cc1cccc(C)c1NC(=O)c1ccccc1NC(=O)C1CCOCC1,-11
O=C(c1ccccn1)N1Cc2nccn2CC(CN2CCCC2)C1 (stereo unspecified),3
Cc1nn(-c2ccccc2)c(Cl)c1C(=O)Oc1ccc(OCc2ccccc2)cc1,-97*
O=C(Oc1ccc(Br)cc1C(=S)N1CCCCC1)c1ccccc1,50
COCc1nc(N(C)Cc2cnn(-c3ccc(F)cc3)c2)c2cnn(C)c2n1,-48
CN1CCN(c2nnc(-c3ccccc3)c(-c3ccccc3)n2)CC1,-8
CN(C)CC(=O)N1C[C@H]2[C@@H](c3ccccc31)[C@@H](CO)N2C(=O)c1ccccn1,-47
C=C(C)C(C)(C)C(=O)NCC1CCN(Cc2cnc(C)nc2)CC1,4
COc1ccc(-n2ncc(C(=O)N3CCN(c4ccc(F)cc4)CC3)c2C)cc1,-25
C[C@@H]1CN([C@H](C)CO)C(=O)c2ccccc2-c2ccccc2CO[C@@H]1CN(C)Cc1cccnc1,-32
COc1ccc(C[C@@H]2CN(C)CC[C@H]2OCC(=O)N2CCCC2)cc1,2
CNC[C@@H]1Oc2c(N)cccc2C(=O)N([C@@H](C)CO)C[C@H]1C,5
O=C(c1ccc(F)cc1)N1CCC2(CC1)Nc1ccccc1-n1cccc12,29

# Further structures follow:
SMILES,Tg IFNy HTS
c1ccc(CN(Cc2cccn2-c2ncccn2)CC2CCCO2)nc1 (stereo unspecified),11
CO[C@H]1CC[C@H]2CCOc3ccc(C#N)cc3C(=O)N(C)[C@@H](C)C(=O)N(C)C[C@@H]1O2,-30
CC(C)CN1C(=O)CC2C1CCN2c1cnccn1 (stereo unspecified),43
COCCN1CCO[C@H]2CN(c3cccc(F)c3)CC[C@@H]2C1,-5
CCC(C)(C)c1ccc2c(C(=O)N3C[C@@H](N)C[C@H]3C(=O)NC)csc2c1,11
COc1ccc(C(=O)N2c3cc4c(cc3C(C)=CC2(C)C)OCO4)cc1,-18
CCn1ccc2cc(S(=O)(=O)N3CCCC(C(=O)NCCCN4CCCC4=O)C3)ccc21 (stereo unspecified),10
Cc1cc(N2C(=O)CSC2c2cccnc2)no1 (stereo unspecified),-2
O=C(NCCn1nnc2ccccc21)c1cnn(Cc2ccccc2)c1,81
CN(C)c1ccc(CNC(=O)CN2C(=O)CCc3cc(S(=O)(=O)N4CCCCC4)ccc32)cc1,35
CCCCNc1cc(=O)n(C)c(=O)n1C,3
COCCN1CCC2(CC1)CC(NC(=O)c1ccc[nH]1)c1ccccc1O2 (stereo unspecified),-2
CCc1ncc(C(=O)N(C)C(C)c2ccon2)cn1 (stereo unspecified),8
O=C(NCc1ccco1)c1ccc(S(=O)(=O)NCc2cccnc2)cc1,0
Cc1cc(C)nc(N2CCC(c3cc(C(=O)Nc4nccs4)c4ccccc4n3)C2)n1 (stereo unspecified),-7
Cc1cccc(CN2CC3(CCC2=O)CCN(C(=O)C2CC2C)CC3)n1 (stereo unspecified),-46
CC1CCN(C(=O)CN2C(=O)CCc3cc(S(=O)(=O)N4CCC(C)CC4)ccc32)CC1,-6
CC[C@@H](CO)NCCN[C@@H](CC)CO,1&1
Cc1c(C(=O)NCC(C)n2cncn2)oc2c(C)cccc12 (stereo unspecified),-7
CC(C)CCN1CCc2[nH]nc(C(=O)N3CC=CC3)c2C1,40
Cc1cc(C2CCCN2C(=O)c2cc(-c3ccccc3)n[nH]2)on1 (stereo unspecified),6
CCc1n[nH]c2c1CN(c1nc(-c3cccnc3)nc3c1cnn3C)CC2,-35
CC(C)(C)C(=O)NC(=S)NNC(=O)c1ccncc1,-20
c1cncc(-c2nccn2Cc2ccc3nsnc3c2)c1,9
Cc1ccc(OCC(O)CN2CCN(c3ccccc3)CC2)cc1 (stereo unspecified),-6

# Continuation.
SMILES,Tg IFNy HTS
COCCN1CCOCC2(C1)CN(C(=O)c1cccn1C)CCO2 (stereo unspecified),58
CC(C)NC[C@@H]1[C@H](c2ccc(C3=CCCCC3)cc2)[C@H](CO)N1S(C)(=O)=O,-48
Cn1cc(C(=O)c2cnn(-c3ccc(OC(F)(F)F)cc3)c2N)c2ccccc21,9
CC1(C)O[C@@H]2CC3C4CCC5=CC(=O)CCC5(C)C4(F)C(O)CC3(C)[C@]2(C(=O)CCl)O1 (stereo partly specified),3&-14
CC1(C)[C@H]2CC=C(CN3CCC4(CC3)C(=O)N(Cc3ccccn3)C(=O)N4CCc3ccccc3)[C@@H]1C2,6
COCc1nc(NCCN2CCNC2=O)c2cnn(C)c2n1,2
CO[C@@H]1CN(C)C(=O)c2cc(NC(C)=O)ccc2OC[C@H](C)N(C(=O)Cc2ccccn2)C[C@H]1C,125
COc1ccccc1-n1cc(C(=O)N(C)Cc2nncn2C(C)C)cn1,5
C[C@@H]1CN([C@@H](C)CO)C(=O)c2ccccc2-c2ccccc2CO[C@H]1CN(C)C(=O)CCC(F)(F)F,67
Cc1nc(C2CCCN2C(=O)Cc2csc(-c3ccccn3)n2)nc2c1CCC(=O)N2C (stereo unspecified),-16
O=C(Cc1ccccn1)N1[C@H](CO)[C@H]2c3ccccc3NC[C@H]21,1
CN1C(=O)CC(c2ccncc2)C12CCN(c1ncccn1)CC2 (stereo unspecified),2
CN1CCN(C(=O)CCC(=O)O)CC1,-2
COC1C2CCC1N(C(=O)c1cnc(C)cn1)C2 (stereo unspecified),-50
CC(CNS(=O)(=O)NCc1ccccc1)Oc1cccnc1 (stereo unspecified),7
Cc1ccc(N2CCC3(CC2)CC(NC(C)(C)C)CO3)nn1 (stereo unspecified),-1
CN(Cc1ccccn1)C(=O)c1cc(-c2ccn[nH]2)n2ccccc12,2
Cc1cc(C)c(-c2nccn2Cc2cccnc2)cc1Cn1cncn1,1
CC(C)Oc1ccc(C(=O)NCCc2csc(-c3cccc(F)c3)n2)cc1,36
